Sfp inh: blocks B. subtilis Sfp PPTase activity; Biochemical Sfp PPTase activity, qHTS; Potency, µM, for the others: max response, negative = inhibition, hits mostly inhibitors; 310,000 compounds, 3.5% hits; AID 1490; active = well fitted inhibition curve with a large enough effect; inconclusive = small, poorly fitted or top-dose-only effect, or another doubt; inactive = no such curve, though single readings can be large or run the other way;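 also: the enzyme is Sfp with the accession as filed and its product quenches rhodamine fluorescence; potency is read from the fitted curve at half-maximal effect; 0% = enzyme reaction without inhibitor and -100% = no enzyme wells; top concentration of the series not given in the record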
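Buffer: 50 mM Hepes-Na pH 7.6, 10 mM MgCl2, 0.01% Nonidet P-40, 0.01% BSA. Enzyme 15 nM, pre-exposed to compound 15 min; substrates then added and fluorescence change tracked over 30 min.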
PINK1 modulator: changes PINK1 expression; PINK1 immunofluorescence, high-content cytometry, 24 h; Potency, µM (series often up to 76.6 µM), without a hit: at the top dose activation (PINK1 increase), usual class: activators; 410,000 compounds, 0.2% hits; AID 624263; active = well fitted activation curve with a large enough effect; inconclusive = small, poorly fitted or top-dose-only effect; inactive = flat fitted curve, though single readings scatter; cell line not stated here;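 also: potency is read from the fitted curve at half-maximal effect; % of control where 0% means no effect; nearly all actives have a fitted effect of over 65% in size; a mitochondrial uncoupler was the plate control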
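Stable cell line treated 24 h with compounds at 5 concentrations (CCCP controls), then fixed and immunostained for PINK1 plus nuclear and cell stains; PINK1 immunofluorescence quantified by laser-scanning microplate cytometry.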
Six1-Eya2 blk: inhibitors of human Six1/Eya2 interaction | AlphaScreen GST-Six1/His-Eya2 binding, biochemical; stronger effect = lower value; control for the full effect not named in the record | activity change, % (test concentration not listed) | 360,000 compounds, 0.56% hits | AID 651725; in the data active = activity change below about -65%; inconclusive = about -30% to -65%; inactive = above about -30%; also: % is scaled to controls: 0 for no effect and ±100 for the full control effect
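GST-Six1 + His-Eya2 (5X stock: 250/500 nM); Tris pH 8.0, 300 mM NaCl, 0.05% BSA, 0.02% Tween 20; GSH donor/Ni acceptor beads; 1 h 37 °C dark; AlphaScreen readout.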
CtBP-E1A inh: blocks the CtBP interaction with E1A; AID 651724; activity change, % (concentration not given with the values); AlphaScreen GST-E1A/His-CtBP binding, 1536-well; stronger effect = lower value; control for the full effect not named in the record; 340,000 compounds, 0.49% hits; in the data active means activity change below about -65%; inconclusive means about -30% to -65%; inactive means above about -30%; also: % is scaled to controls: 0 for no effect and ±100 for the full control effect
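In 5 uL wells, 23 nL compound meets equimolar GST-E1A and His-CtBP (5X stock 125 nM each) for 2 h, 37 °C. Beads (5X, 50 ug/mL) then 1 h, 37 °C, dark.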
D2 agonist: human D2 receptor agonism in beta-arrestin assay | activation, % (concentration not given with the values) | DiscoveRx PathHunter D2 beta-arrestin, luminescence, 90 min; 100% = 57 uM dopamine signal | P14416 | 360,000 compounds, 0.084% hits; in the data active = activation above about 40%; inconclusive = about 15% to 40%; inactive = below about 15%; also: the text of the record calls up to 30% inactive
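Agonist mode: compounds alone added to overnight-plated D2 PathHunter cells for 90 min at 37 C, with 57 uM final dopamine (EC100) defining full response. Beta-arrestin recruitment detected by chemiluminescent reagent, read after 1 h at ambient temperature.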
TRPV1 potentiator: potentiators of human vanilloid receptor 1 (TRPV1); Q8NER1; 320,000 compounds, 0.02% hits; AID 540277; potentiation, % at 8.33 µM; TRPV1-expressing cells, Fluo-8 calcium influx, capsaicin EC20 potentiation; host cell line not named in the record; control for the full effect not named in the record; active means potentiation above 80%; inconclusive means 30% to 80%; inactive means below 30%; also: 0% is about no effect
Target sequence (Q8NER1 whole entry, looked up): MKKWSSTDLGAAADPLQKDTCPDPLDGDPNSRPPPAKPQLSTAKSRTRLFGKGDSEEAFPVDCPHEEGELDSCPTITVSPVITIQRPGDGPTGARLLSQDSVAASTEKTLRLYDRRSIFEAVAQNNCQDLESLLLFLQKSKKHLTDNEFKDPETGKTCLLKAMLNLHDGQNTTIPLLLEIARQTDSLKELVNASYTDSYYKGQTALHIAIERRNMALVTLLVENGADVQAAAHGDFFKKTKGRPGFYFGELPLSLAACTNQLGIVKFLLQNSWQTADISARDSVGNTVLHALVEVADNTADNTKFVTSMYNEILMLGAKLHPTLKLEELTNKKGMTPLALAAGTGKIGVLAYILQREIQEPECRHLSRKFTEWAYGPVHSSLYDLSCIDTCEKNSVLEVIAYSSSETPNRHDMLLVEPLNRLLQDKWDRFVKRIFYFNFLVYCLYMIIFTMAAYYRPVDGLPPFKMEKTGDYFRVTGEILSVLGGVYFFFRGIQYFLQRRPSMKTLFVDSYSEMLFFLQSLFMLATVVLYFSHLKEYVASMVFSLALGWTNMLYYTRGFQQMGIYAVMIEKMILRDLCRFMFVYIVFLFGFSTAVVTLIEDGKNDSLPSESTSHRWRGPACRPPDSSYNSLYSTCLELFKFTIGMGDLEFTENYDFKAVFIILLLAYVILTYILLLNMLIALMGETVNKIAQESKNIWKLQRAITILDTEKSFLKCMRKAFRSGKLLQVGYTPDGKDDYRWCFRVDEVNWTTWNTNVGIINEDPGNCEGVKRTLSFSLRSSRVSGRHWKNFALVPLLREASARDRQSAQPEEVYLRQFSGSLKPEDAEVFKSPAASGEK
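TRPV1-expressing cells were cultured overnight at 35.5C and loaded with Fluo-8 calcium dye for 40 to 90 min at room temperature. After a 10 s baseline, compound was added and calcium influx was read kinetically for 3 min (ex 480/em 520 nm).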
D2 PAM: human D2 receptor positive allosteric modulation. P14416. DiscoveRx D2 beta-arrestin cells, luminescence, 90 min; 100% = 57 uM dopamine signal. potentiation, % (test concentration not listed). 360,000 compounds, 0.23% hits. AID 624464; active = potentiation of 50% or more; inconclusive = 30% to 50%; inactive = 30% or less;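 also: compound concentration not given in the record; tested on top of an EC20 dose of dopamine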
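PathHunter D2 cells, attached overnight at 37 deg C, received compound in DMSO plus dopamine at EC20 (50 nM final) for 90 min at 37 deg C. Beta-arrestin recruitment was read as luminescence after 1 h with detection reagent at ambient temperature.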
An asterisk follows results filed as active; [ ] = another dose, or the depositor's remark. Hits appear at their usual frequency; any-hit rate near 3.7%.

For Cc1n[nH]c(=O)c2c(NC(=O)COC(=O)COc3cccc(Br)c3)oc(C)c12 the results were PINK1 modulator 0.4%, Six1-Eya2 blk -1, CtBP-E1A inh 2, D2 agonist -4.0, TRPV1 potentiator -2 and D2 PAM -6.
Screening O=C(C1=C[C@@H](c2ccc(C(F)(F)F)cc2)C[C@@H](OCCCCO)O1)N1CCN(Cc2ccccc2)CC1 returned Sfp inh 11%, PINK1 modulator 5.8%, Six1-Eya2 blk -2, CtBP-E1A inh 4, D2 agonist 1.9, TRPV1 potentiator -8 and D2 PAM -23.
Screening Cc1ccc(S(=O)(=O)Cn2nnnc2CN(Cc2ccco2)CC2CCCO2)cc1 (stereo unspecified) returned Sfp inh 11%, PINK1 modulator 2.9%, Six1-Eya2 blk -1, CtBP-E1A inh 10, D2 agonist -6.2, TRPV1 potentiator -23 and D2 PAM -15.
`Cc1ccc(S(=O)(=O)N2CCOCC2)cc1C(=O)Nc1ccncc1` gave PINK1 modulator 3.5%, Six1-Eya2 blk 2, D2 agonist -4.6, TRPV1 potentiator -11 and D2 PAM 1.
For O=C(CSc1nc2ccccc2nc1N1CCCCC1)N1CCN(c2ccccc2)CC1 the results were Sfp inh 9%, PINK1 modulator 0.1%, Six1-Eya2 blk -14, CtBP-E1A inh -8, D2 agonist 4.9, TRPV1 potentiator -21 and D2 PAM 0.
For COc1cc(CCC(=O)Nc2c(C(=O)N3CCN(c4ccccc4OC)CC3)oc3ccccc23)on1 the results were Sfp inh 1%, PINK1 modulator 0.3%, Six1-Eya2 blk -7, CtBP-E1A inh -14, D2 agonist -5.6, TRPV1 potentiator 0 and D2 PAM -3.
Screening CCOc1cccc(-c2nnc3sc(COc4ccc(OC)cc4)nn23)c1 returned Sfp inh -23%, PINK1 modulator 3.5%, Six1-Eya2 blk -7, CtBP-E1A inh 1, D2 agonist 2.4, TRPV1 potentiator -18 and D2 PAM -4.
For Cc1nc2ccccc2c2ncccc12 the results were Sfp inh 2%, PINK1 modulator -2.9%, Six1-Eya2 blk -2, CtBP-E1A inh -10, D2 agonist 3.0, TRPV1 potentiator 8 and D2 PAM 1.
For CC(=O)NNC(=O)CN1C(=O)/C(=C/c2ccccc2)SC1=S the results were Sfp inh 1%, PINK1 modulator 1.1%, Six1-Eya2 blk -5, CtBP-E1A inh -19, D2 agonist 7.1, TRPV1 potentiator -9 and D2 PAM 0.
Screening COCCNC(=O)CN(CC1CCCO1)C(=O)CCC(=O)Nc1ccccn1 (stereo unspecified) returned Sfp inh 20%, PINK1 modulator -2.0%, Six1-Eya2 blk 2, CtBP-E1A inh 1, D2 agonist 1.3, TRPV1 potentiator 26 and D2 PAM -17.
COCCNC(=O)C1CCCN(C(=O)Cc2cccc3ccccc23)CC1 (stereo unspecified) was read as PINK1 modulator 2.4%, Six1-Eya2 blk -2, CtBP-E1A inh 4, D2 agonist -5.5 and D2 PAM -1.
Screening COc1ccc(Nc2nc(OC)nc(OC)n2)cc1 returned Sfp inh -3%, PINK1 modulator -0.3%, Six1-Eya2 blk 1, D2 agonist 2.0, TRPV1 potentiator -6 and D2 PAM 0.
`COc1ccc(CCNC(=O)c2nnn(-c3ccc4c(c3)OCCO4)c2N)cc1OC` gave Sfp inh 9%, PINK1 modulator 3.1%, Six1-Eya2 blk -4, CtBP-E1A inh -10, D2 agonist inconclusive, TRPV1 potentiator 8 and D2 PAM inconclusive.
CC(=O)Nc1ccc(S(=O)(=O)Nc2ccc3ccccc3n2)cc1 was read as Sfp inh 14%, PINK1 modulator 0.9%, Six1-Eya2 blk 0, CtBP-E1A inh 2, D2 agonist 1.3, TRPV1 potentiator 17 and D2 PAM -10.
`CCOC(=O)c1c(C#N)c(SCC(=O)Nc2ccc(OC)cc2)nc2c1CN(CC)CC2` gave Sfp inh -3%, PINK1 modulator -4.5%[38.3 µM], Six1-Eya2 blk -11, CtBP-E1A inh 11, D2 agonist -1.6, TRPV1 potentiator 2 and D2 PAM -14.
Screening O=C(O)c1ccccc1NS(=O)(=O)c1cccc(C(F)(F)F)c1 returned Sfp inh 7%, PINK1 modulator 4.3%[38.3 µM], Six1-Eya2 blk 28, CtBP-E1A inh 3, D2 agonist -2.2, TRPV1 potentiator -1 and D2 PAM 11.
For COc1ccc(CNC(=O)CSc2nnnn2-c2ccccc2)cc1 the results were Sfp inh 9%, Six1-Eya2 blk 1, CtBP-E1A inh 10, D2 agonist 1.1, TRPV1 potentiator -3 and D2 PAM 7.
`CCN1CCN(Cc2cc(=O)oc3cc4c(cc23)CCC4)CC1` gave Sfp inh 3%, PINK1 modulator -6.1%, Six1-Eya2 blk 0, CtBP-E1A inh 6, D2 agonist -4.4 and D2 PAM -20.
For CCOC(=O)/C(=N/Nc1ccc(C)cc1)S(=O)(=O)c1ccc(Cl)cc1 the results were Sfp inh -8%, PINK1 modulator -0.8%[38.3 µM], Six1-Eya2 blk -5, CtBP-E1A inh 0, D2 agonist -1.5, TRPV1 potentiator -1 and D2 PAM -11.
For Cc1nn(C)c(C)c1S(=O)(=O)N1CCC(C(=O)NC2CCCCCC2)CC1 the results were Sfp inh -4%, PINK1 modulator 2.6%, Six1-Eya2 blk 12, CtBP-E1A inh -10, D2 agonist -0.3, TRPV1 potentiator inconclusive and D2 PAM -6.

Filtered by structure: the entries above with fluorine (two)
Screening O=C(C1=C[C@@H](c2ccc(C(F)(F)F)cc2)C[C@@H](OCCCCO)O1)N1CCN(Cc2ccccc2)CC1 returned Sfp inh 11%, PINK1 modulator 5.8%, Six1-Eya2 blk -2, CtBP-E1A inh 4, D2 agonist 1.9, TRPV1 potentiator -8 and D2 PAM -23.
Screening O=C(O)c1ccccc1NS(=O)(=O)c1cccc(C(F)(F)F)c1 returned Sfp inh 7%, PINK1 modulator 4.3%[38.3 µM], Six1-Eya2 blk 28, CtBP-E1A inh 3, D2 agonist -2.2, TRPV1 potentiator -1 and D2 PAM 11.

Continuation:
`Cc1ccc(S(=O)(=O)NC(=O)Nc2cccc([N+](=O)[O-])c2)cc1` gave Sfp inh 11%, PINK1 modulator 0.6%, Six1-Eya2 blk 7, CtBP-E1A inh 0, D2 agonist 0.8, TRPV1 potentiator 2 and D2 PAM -8.
C#CCOCCOCCOCCNc1nc(N2CCN(C(=O)Cn3cc(CCO)nn3)CC2)nc(N2CCN(C(=O)[C@H](CCCCN)n3cc(CCCC)nn3)CC2)n1 was read as PINK1 modulator -1.3%, Six1-Eya2 blk 3, CtBP-E1A inh 5, D2 agonist -3.8 and D2 PAM -13.
Cc1ccc(S(=O)(=O)N2CCCCC2)cc1NC(=O)CSc1ncnc2ccccc12 was read as Sfp inh 1%, PINK1 modulator 0.0%, Six1-Eya2 blk -8, CtBP-E1A inh 24, D2 agonist -4.4, TRPV1 potentiator 4 and D2 PAM -11.
Cc1ccc(NS(=O)(=O)c2cccc(C(=O)Nc3c(C)n(C)n(-c4ccccc4)c3=O)c2)cc1 was read as Sfp inh 12%, PINK1 modulator -1.8%, Six1-Eya2 blk 1, CtBP-E1A inh 4, D2 agonist 0.3, TRPV1 potentiator 14 and D2 PAM -5.
For COc1ccc(CC2=CC(=O)c3ccccc3C2=O)cc1 the results were Sfp inh 25µM*, PINK1 modulator 8.1%, Six1-Eya2 blk 1, D2 agonist inconclusive, TRPV1 potentiator 25 and D2 PAM -17.
For COc1cc(/C=C(/C#N)C(=O)c2c(C)[nH]c3ccccc23)ccc1OCC#N the results were Sfp inh 16%, PINK1 modulator 9.3%, Six1-Eya2 blk -2, D2 agonist -0.5, TRPV1 potentiator 3 and D2 PAM -18.
For c1ccc2c(N3CCCCC3)ncnc2c1 the results were Sfp inh -26%, PINK1 modulator -2.4%, Six1-Eya2 blk -3, CtBP-E1A inh 10, D2 agonist -2.8, TRPV1 potentiator 5 and D2 PAM -19.
COCCN(CCOC)c1ncc(Cl)c(C(=O)c2c(C)cc3ccccn23)n1 was read as Sfp inh 1%, PINK1 modulator 0.1%[38.3 µM], Six1-Eya2 blk -8, CtBP-E1A inh -16, D2 agonist -0.7, TRPV1 potentiator -8 and D2 PAM -7.
Screening CCN1CCN(c2cc(C)c3cc(NC(=O)c4cncc(Br)c4)ccc3n2)CC1 returned Sfp inh 4%, PINK1 modulator -0.8%, Six1-Eya2 blk 1, CtBP-E1A inh -13, D2 agonist -0.6, TRPV1 potentiator 4 and D2 PAM -35.
`COc1ccc(NC(=O)C2(C)Cc3c(-c4ccc(N(C)C)cc4)ccnc3O2)cc1` (stereo unspecified) gave PINK1 modulator 2.1%, Six1-Eya2 blk inconclusive, CtBP-E1A inh inconclusive, D2 agonist -2.9 and D2 PAM -6.
`Cc1nnc(SCC(=O)Nc2nccs2)n(N)c1=O` gave Sfp inh -10%, PINK1 modulator 0.0%, Six1-Eya2 blk -1, CtBP-E1A inh 1, D2 agonist 0.7, TRPV1 potentiator 17 and D2 PAM 3.
Screening O=C1NC(=S)SC1=Cc1ccc(Cl)cc1 returned PINK1 modulator inconclusive, Six1-Eya2 blk -13, CtBP-E1A inh -28, D2 agonist -5.5 and D2 PAM -13.
For CCSc1nnc(NC(=O)CCNS(=O)(=O)c2cc(Br)cnc2N)s1 the results were Sfp inh 14%, PINK1 modulator 0.1%, Six1-Eya2 blk -1, CtBP-E1A inh 2, D2 agonist -4.0, TRPV1 potentiator 5 and D2 PAM 6.
For CCOc1ccc(C(=O)NCC2CCCO2)cc1OCC (stereo unspecified) the results were Sfp inh -9%, PINK1 modulator -1.3%, Six1-Eya2 blk 5, CtBP-E1A inh 6, D2 agonist -4.9, TRPV1 potentiator 7 and D2 PAM -13.
Screening COc1ccc(-c2ccc(/C=N/NC(=O)Cc3nnc(N)s3)o2)cc1Cl returned Sfp inh inconclusive, PINK1 modulator 1.5%, Six1-Eya2 blk -23, D2 agonist -1.2, TRPV1 potentiator 3 and D2 PAM -12.
CC(C)NS(=O)(=O)c1ccc(CCC(=O)NCc2ccncc2)cc1 was read as Sfp inh 6%, PINK1 modulator 3.7%, Six1-Eya2 blk 11, CtBP-E1A inh 0, D2 agonist 2.0, TRPV1 potentiator 7 and D2 PAM -10.
For CC(C)C1Cc2nc(Cl)c(C#N)cc2CO1 (stereo unspecified) the results were Sfp inh 2%, PINK1 modulator -0.9%, Six1-Eya2 blk 9, CtBP-E1A inh 5, D2 agonist 0.4 and D2 PAM -7.
Screening O=C(Nc1cccc(S(=O)(=O)NC2=NCCC2)c1)c1ccccc1 returned PINK1 modulator -0.3%, Six1-Eya2 blk 3, CtBP-E1A inh 0, D2 agonist -2.4 and D2 PAM -6.

High-throughput results from PubChem.
